# A1 inhib: A1 inhibition. actives 0.51% (n = 21,000). AID 2241. MEF A1-2A-BIM cells, caspase-Glo luminescence, 3 h; percent of clofoctol signal, DMSO as zero. caspase activation, % (no concentration beside the values);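 active = most replicate scores above 10, or exactly half above 10 with mean activity above 10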;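 note: effector caspase 3 and 7 activity cleaving a DEVD luciferin substrate; 50 nL library stock added to about 30 µL; numbers are from one replicate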
# BJeLR viability: BJeLR cell viability reduction; AID 2275; BJeLR fibroblasts viability, CellTiterGlo ATP luminescence, 48 h; HRASV12, hTERT and SV40 LT/ST transformed; viability loss activity score, % (concentration not given with the values); actives 0.64% (n = 30,000); in the data active = viability loss activity score above about 50%; about a fifth of its hits are not listed in these tables;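 note: higher score means fewer live cells and less ATP luminescence; stock transfer was 50 or 100 nL into about 30 µL; 0% = vehicle wells and 100% = a reference killing control; one replicate is shown; the record names a cut of 85%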
# * = called active by the depositor; & = joins results of further samples. Only part of the results is shown; the hit share may differ from the screen's.
# Start of the listing, in advance (2 entries):
entry | Compound | A1 inhib | BJeLR viability
1 | C[C@]12CC[C@H]3[C@@H](CCC4=CC(=O)CC[C@@]43C)[C@@H]1CC[C@@H]2C(=O)CO | -0.5 | -0.4
2 | O=C(O)CCC/C=C\C[C@H]1C(=O)C[C@@H](O)[C@@H]1/C=C/[C@@H](O)CCc1ccccc1 | 0.6 | -0.4

# The listing, from the first entry:
entry | Compound | A1 inhib | BJeLR viability
1 | C[C@]12CC[C@H]3[C@@H](CCC4=CC(=O)CC[C@@]43C)[C@@H]1CC[C@@H]2C(=O)CO | -0.5 | -0.4
2 | O=C(O)CCC/C=C\C[C@H]1C(=O)C[C@@H](O)[C@@H]1/C=C/[C@@H](O)CCc1ccccc1 | 0.6 | -0.4
3 | O=C(O)CN1C(=O)c2cccc3cccc(c23)C1=O | -1.0 | -5.4
4 | C=C1c2cccc(O)c2C(=O)C2C(=O)[C@]3(O)C(=O)C(C(N)=O)C(=O)[C@@H](N(C)C)[C@@H]3[C@@H](O)[C@H]12 (some centres undefined) | 1.7 | -0.7
5 | c1ccc2c(CC3=NCCN3)cccc2c1 | 0.3 | 0.1
6 | CC(=O)[C@H]1CC[C@H]2[C@@H]3C[C@H](C)C4=CC(=O)CC[C@]4(C)[C@H]3[C@@H](O)C[C@]12C | -0.1 | -5.1
7 | CCOC(=O)c1ccc2nc(C(F)(F)F)nc(NCc3ccc(Cl)cc3)c2c1 | -1.1 | -2.7
8 | C1=NC(Cc2cccc3ccccc23)NC1 (centres undefined) | 0.8 | 1.7
9 | NS(=O)(=O)c1cc2c(cc1C(F)(F)F)NC(Cc1ccccc1)NS2(=O)=O (centres undefined) | -0.1 | -6.2
10 | CCCOc1ccccc1-c1nc2n[nH]nc2c(=O)[nH]1 | -0.5 | -12.5
11 | Cc1coc2c1C(=O)C(=O)c1c-2ccc2c1CCCC2(C)C | -1.7 | 14.8
12 | COc1ccccc1OCC(O)COC(N)=O (centres undefined) | 0.1 | -1.6
13 | COc1c(O)cc2c(c1O)C1OC(CO)C(O)C(O)C1OC2=O (centres undefined) | 0.1 | 2.0
14 | CC1=NN(c2ccccc2)C(=O)C1 | 0.0 | -3.8
15 | CN1CCC(=C2c3ccccc3CCc3sccc32)CC1 | -0.8&-0.1 | 3.8&9.7

# Two records picked at random from those above, as already listed:
entry | Compound | A1 inhib | BJeLR viability
10 | CCCOc1ccccc1-c1nc2n[nH]nc2c(=O)[nH]1 | -0.5 | -12.5
11 | Cc1coc2c1C(=O)C(=O)c1c-2ccc2c1CCCC2(C)C | -1.7 | 14.8

# Compounds from the list above that have nitrogen in an aromatic ring (two):
entry | Compound | A1 inhib | BJeLR viability
7 | CCOC(=O)c1ccc2nc(C(F)(F)F)nc(NCc3ccc(Cl)cc3)c2c1 | -1.1 | -2.7
10 | CCCOc1ccccc1-c1nc2n[nH]nc2c(=O)[nH]1 | -0.5 | -12.5

# Screens from PubChem BioAssay.
